From PubChem BioAssay
NOMO-1 viab: STK33 inhibitor candidate reducing NOMO-1 cell viability; inhibition, % (test concentration not listed); 37,000 compounds, 7.5% hits; NOMO-1 AML viability, CellTiter-Glo luminescence, 72 h;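 active means most replicates above 80%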;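 further: wells of about 30 µL received 25 nL stock; 0% = median of vehicle wells and 100% = reference inhibitor level; the first replicate is given; inactives centre near 10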
* marks the source's active call; other numbers are inactive results.

SMILES | NOMO-1 viab
C[C@@H]1CN([C@@H](C)CO)C(=O)c2cc(NC(=O)Nc3ccc(C(F)(F)F)cc3)ccc2O[C@H]1CN(C)Cc1ccc(-c2ccccc2)cc1 | 118.1*
C[C@@H]1CN([C@@H](C)CO)C(=O)c2cc(NS(=O)(=O)c3ccc(Cl)cc3)ccc2O[C@@H]1CN(C)Cc1ccc(C(F)(F)F)cc1 | 123.4*
COc1ccccc1NC(=O)CSc1nnc(-c2ccc([N+](=O)[O-])cc2)n1-c1ccccc1 | 40.0
CC(C)NC(=O)Nc1ccc2c(c1)C(=O)N([C@@H](C)CO)C[C@H](C)[C@@H](CN(C)CC1CCCCC1)O2 | -15.8
COc1ccc(C(=O)NCC(=O)Nc2cccc(C(F)(F)F)c2)cc1 | -28.2
CCOC(=O)c1c(NC(=O)C2CC(Cl)=CCC2C(=O)O)sc2c1CC(C)CC2 (stereo unspecified) | -4.1
COc1cccc2sc(=NC(=O)CC34CC5CC(CC(C5)C3)C4)n(C)c12 | -1.6
C[C@@H]1CN([C@H](C)CO)C(=O)c2cc(NC(=O)Nc3ccccc3)ccc2O[C@H]1CN(C)Cc1ccc(Cl)c(Cl)c1 | -8.2
C[C@@H]1CN([C@H](C)CO)C(=O)c2cccc(NC(=O)c3nc4ccccc4s3)c2O[C@H]1CN(C)Cc1ccccc1 | 96.6*
C[C@@H]1CN([C@H](C)CO)C(=O)c2cc(NC(=O)CCCN(C)C)ccc2O[C@H]1CN(C)Cc1ccccc1 | -25.3
C[C@@H]1CN([C@H](C)CO)C(=O)c2cc(NC(=O)Nc3ccc(C(F)(F)F)cc3)ccc2O[C@@H]1CN(C)S(=O)(=O)c1cn(C)cn1 | -6.7
C[C@H]1CN([C@@H](C)CO)C(=O)c2cccc(NC(=O)c3nc4ccccc4s3)c2O[C@@H]1CN(C)C(=O)Nc1cccc2ccccc12 | 31.7
C[C@@H]1CN([C@H](C)CO)C(=O)c2cc(NC(=O)Nc3cccc4ccccc34)ccc2O[C@H]1CN(C)C(=O)Nc1cccc2ccccc12 | 6.9
CCNS(=O)(=O)c1cc(C)ccc1-n1cnnn1 | -5.1
Cn1c(SCC(=O)Nc2ccccc2C(F)(F)F)nnc1-c1ccc(F)cc1 | 27.3

Structures listed so far with fluorine, in the order listed:
SMILES | NOMO-1 viab
C[C@@H]1CN([C@@H](C)CO)C(=O)c2cc(NC(=O)Nc3ccc(C(F)(F)F)cc3)ccc2O[C@H]1CN(C)Cc1ccc(-c2ccccc2)cc1 | 118.1*
C[C@@H]1CN([C@@H](C)CO)C(=O)c2cc(NS(=O)(=O)c3ccc(Cl)cc3)ccc2O[C@@H]1CN(C)Cc1ccc(C(F)(F)F)cc1 | 123.4*
COc1ccc(C(=O)NCC(=O)Nc2cccc(C(F)(F)F)c2)cc1 | -28.2
C[C@@H]1CN([C@H](C)CO)C(=O)c2cc(NC(=O)Nc3ccc(C(F)(F)F)cc3)ccc2O[C@@H]1CN(C)S(=O)(=O)c1cn(C)cn1 | -6.7
Cn1c(SCC(=O)Nc2ccccc2C(F)(F)F)nnc1-c1ccc(F)cc1 | 27.3

Further entries follow.
SMILES | NOMO-1 viab
C[C@@H]1CN([C@H](C)CO)C(=O)c2cccc(NC(=O)Nc3ccc(F)cc3)c2O[C@@H]1CN(C)S(C)(=O)=O | 29.8
COc1ccc(-c2cc(=O)oc3cc(OC(C(=O)O)c4ccccc4)ccc23)cc1 (stereo unspecified) | 3.0
COc1ccc(S(=O)(=O)N(C)C[C@@H]2Oc3ccc(NS(=O)(=O)c4ccccc4)cc3C(=O)N([C@H](C)CO)C[C@@H]2C)cc1 | 26.9
COc1ccc(NC(=S)NCCn2cc(Br)cn2)cc1OC | 8.4
Cc1cc(N)nc(COc2ccc([N+](=O)[O-])cc2)n1 | -1.0
C[C@H](CO)N1C[C@H](C)[C@@H](CN(C)Cc2ccccc2)Oc2c(NC(=O)C3CC3)cccc2C1=O | 7.2
CSc1ccccc1C(=O)Nc1ccccc1C(=O)NCc1ccco1 | 2.6
CCOc1ccccc1OCC(=O)Nc1cccc([N+](=O)[O-])c1 | 30.0
Cc1noc(C)c1S(=O)(=O)N(C)C[C@H]1OCCCC[C@@H](C)Oc2ccc(NC(=O)Nc3cccc4ccccc34)cc2C(=O)N([C@H](C)CO)C[C@@H]1C | 19.1
C[C@H]1CN([C@@H](C)CO)C(=O)Cc2cc(NS(C)(=O)=O)ccc2O[C@@H]1CN(C)S(=O)(=O)c1ccccc1 | -7.5
Nc1cc(OC(=O)c2ccccc2)nn1S(=O)(=O)c1ccccc1 | 8.8
C[C@@H]1CN([C@H](C)CO)C(=O)c2cc(NC(=O)CCN3CCOCC3)ccc2O[C@@H]1CN(C)Cc1ccc(C(=O)Nc2ccccc2N)cc1 | 21.9
COc1ccc(CN(C)C[C@H]2Oc3ccc(NC(=O)C4CCCCC4)cc3CC(=O)N([C@@H](C)CO)C[C@@H]2C)cc1 | -0.2
COC(=O)c1c(NC(=O)C2C3C=CC(C3)C2C(=O)O)sc(C)c1C (stereo unspecified) | -11.4
COc1ccc(NC(=O)Nc2ccc3c(c2)C(=O)N([C@@H](C)CO)C[C@H](C)[C@@H](CN(C)Cc2ccc(C(F)(F)F)cc2)O3)cc1 | 20.1
C[C@H](CO)N1C[C@H](C)[C@@H](CN(C)CC2CCCCC2)Oc2ccc(NS(=O)(=O)c3ccc(F)cc3)cc2C1=O | 17.5
COc1ccccc1NC(=O)C1=C(C)Nc2ncnn2C1c1ccccc1OCc1ccccc1 (stereo unspecified) | 20.1
C[C@H](CO)N1C[C@H](C)[C@H](CN(C)S(=O)(=O)c2ccccc2)Oc2ccc(NC(=O)CCCCCC(=O)Nc3ccccc3N)cc2CC1=O | 34.3
NCc1ccccc1CC(=O)N[C@@H]1C(=O)N2C(C(=O)O)=C(CSc3nnnn3CC(=O)O)CS[C@H]12 | -2.5
COc1cc2c(cc1NC(=O)COc1ccc(Br)cc1C)oc1ccccc12 | 49.2
O=S(=O)(Nc1cccnc1)c1cccc(S(=O)(=O)c2ccc(Cl)c(Cl)c2)c1 | -18.6
CS(=O)(=O)N(CC(=O)Nc1cc(Cl)cc(Cl)c1)c1cccc([N+](=O)[O-])c1 | 43.0
COc1ccc([N+](=O)[O-])cc1NC(=O)C(C)N1C(=O)C2CC=C(Cl)CC2C1=O (stereo unspecified) | -2.6
COc1ccc(S(=O)(=O)N(C)C[C@@H]2Oc3c(NC(=O)c4nc5ccccc5s4)cccc3C(=O)N([C@@H](C)CO)C[C@H]2C)cc1 | 63.2
COc1ccc(NC(=O)N(C)C[C@H]2Oc3c(NS(=O)(=O)c4ccccc4)cccc3C(=O)N([C@H](C)CO)C[C@H]2C)cc1 | -14.6
C[C@@H]1CN([C@@H](C)CO)C(=O)c2cccc(NC(=O)c3ccncc3)c2O[C@@H]1CN(C)S(=O)(=O)c1cccs1 | -4.4
C[C@@H]1CN([C@H](C)CO)C(=O)c2cccc(NC(=O)C3CCOCC3)c2O[C@H]1CN(C)S(=O)(=O)c1cccs1 | -9.7
O=C(CSc1nc(-c2ccccc2)cc(C(F)(F)F)n1)Nc1ccc(F)cc1 | 33.9
C[C@H]1CN([C@@H](C)CO)C(=O)Cc2cc(NC(=O)Cn3cnnn3)ccc2O[C@H]1CN(C)Cc1ccc(C(=O)O)cc1 | -11.4
C[C@@H]1CN([C@@H](C)CO)C(=O)c2cc(NS(=O)(=O)c3cn(C)cn3)ccc2O[C@@H]1CN(C)CC1CCCCC1 | 2.8
Cc1ccc(N(C(C)C(=O)NC2CCCCC2)S(C)(=O)=O)cc1C (stereo unspecified) | -11.4
CCOC(=O)c1c(NC(=S)Nc2cnccn2)sc(C)c1-c1ccccc1 | 47.0
C[C@H](CO)N1C[C@H](C)[C@H](CN(C)S(C)(=O)=O)Oc2c(NS(C)(=O)=O)cccc2C1=O | -10.4
COC(=O)c1cccc(NC(=O)CN(c2cccc(F)c2)S(C)(=O)=O)c1C | 97.6*
C[C@@H]1CN([C@H](C)CO)C(=O)Cc2cc(NS(=O)(=O)c3ccc(Cl)cc3)ccc2O[C@H]1CN(C)CC1CCCCC1 | 127.3*
Cc1nc(CSc2nc3[nH]ncc3c(=O)n2-c2ccccc2)cs1 | 5.7
C/C=C(/C)C(=O)OC(COc1c2ccoc2c(OC)c2oc(=O)ccc12)C(C)(C)O (stereo unspecified) | 20.6
CC1(C)c2cc(Cl)ccc2-n2c1cc(O)c(-c1ccccc1)c2=O | 17.2
C[C@H](CO)N1C[C@H](C)[C@H](CN(C)C(=O)Nc2ccccc2)Oc2ccc(NS(C)(=O)=O)cc2CC1=O | 10.2
COc1ccc(CN(C)C[C@H]2Oc3c(NS(=O)(=O)c4cccs4)cccc3C(=O)N([C@@H](C)CO)C[C@H]2C)cc1 | -5.4
Cc1[nH]c(=S)[nH]c1C12CC3CC(CC(C3)C1)C2 | 17.2
COc1ccc(-c2nc(SCC(=O)Nc3ccc4ccccc4c3)n[nH]2)cc1 | 10.6
C[C@@H]1CN([C@H](C)CO)C(=O)Cc2cc(NC(=O)Nc3ccc(C(F)(F)F)cc3)ccc2O[C@H]1CN(C)Cc1ccc(C(=O)O)cc1 | 12.8
CC(=O)NCCOc1c(C)cccc1C | 7.5
COc1ccc(NC(=O)Nc2cccc3c2O[C@H](CN(C)C(=O)Nc2cccc4ccccc24)[C@H](C)CN([C@@H](C)CO)C3=O)cc1 | 35.5
c1ccc(-c2csc3nnc(SCc4ccc5c(c4)OCCO5)n23)cc1 | -4.2
O=C(CSc1nnc(-c2ccc([N+](=O)[O-])cc2)n1-c1ccccc1)NC1CCCCC1 | 31.7
C[C@@H]1CN([C@H](C)CO)C(=O)c2cccc(NC(=O)c3ccc(-c4nccs4)cc3)c2O[C@H]1CN(C)Cc1ccc(C(=O)O)cc1 | 12.2
S=C1CC(c2ccccc2)Sc2ccccc2N1 (stereo unspecified) | 33.8
C[C@H]1CN([C@@H](C)CO)C(=O)c2cc(NC(=O)CCCN(C)C)ccc2O[C@H]1CN(C)C(=O)Nc1ccc(F)cc1 | 4.9
CNC[C@H]1Oc2ccc(NC(=O)CCCN(C)C)cc2C(=O)N([C@H](C)CO)C[C@@H]1C | -4.7
Cc1noc(C)c1NC(=O)Nc1ccc2c(c1)C(=O)N([C@H](C)CO)C[C@H](C)[C@@H](CN(C)C(=O)CCCN(C)C)OCCCC[C@@H](C)O2 | 17.2
Nc1nc2c(-c3ccc(Br)cc3)nnn2c2ccccc12 | 13.5
CC(C)NC(=O)Nc1ccc2c(c1)C(=O)N([C@H](C)CO)C[C@@H](C)[C@H](CN(C)Cc1ccc3c(c1)OCO3)O2 | 8.9
C[C@H]1CN([C@@H](C)CO)C(=O)Cc2cc(NC(=O)Nc3ccc(C(F)(F)F)cc3)ccc2O[C@H]1CN(C)C(=O)Nc1ccccc1 | -4.2
CC(=O)c1c(C)oc2ccc(N(C(=O)c3ccncc3)S(=O)(=O)c3ccc(F)cc3)cc12 | 31.1
COc1ccc(NC(=O)N(C)C[C@@H]2Oc3ccc(NC(=O)c4ccncc4)cc3C(=O)N([C@@H](C)CO)C[C@@H]2C)cc1 | 5.5
C[C@@H]1CCCCO[C@H](CN(C)C(=O)Cc2ccccc2)[C@@H](C)CN([C@H](C)CO)C(=O)c2cc(NC(=O)NC3CCCCC3)ccc2O1 | 6.2
COc1ccc(Cl)cc1NC(=O)Cn1cnc2sc3c(c2c1=O)CCC(C)C3 (stereo unspecified) | 33.5
NS(=O)(=O)c1ccc(CCNc2ncnc3c2c(-c2ccccc2)cn3-c2ccc(F)cc2)cc1 | 30.4

Grouped by structure: the entries above containing bromine.
SMILES | NOMO-1 viab
COc1ccc(NC(=S)NCCn2cc(Br)cn2)cc1OC | 8.4
COc1cc2c(cc1NC(=O)COc1ccc(Br)cc1C)oc1ccccc12 | 49.2
Nc1nc2c(-c3ccc(Br)cc3)nnn2c2ccccc12 | 13.5

The listing continues:
SMILES | NOMO-1 viab
Cc1ccc(S(=O)(=O)Nc2ccc3c(c2)C(=O)N([C@@H](C)CO)C[C@@H](C)[C@H](CN(C)S(=O)(=O)c2ccc(F)cc2)O3)cc1 | -7.7
CCNS(=O)(=O)c1ccc(Cl)cc1I | 12.1
Cc1ccc(NC(=O)CSc2nc3ccccc3s2)cc1[N+](=O)[O-] | -11.0
Cc1cc(=O)c2c(O)c(C)c(O)cc2o1 | -3.6
CCn1c(=S)[nH]c2ccccc2c1=O | -17.2
Cc1nn(C)c2ncc(C(N)=O)c(Oc3cccnc3)c12 | 0.0
C[C@H]1CN([C@@H](C)CO)C(=O)c2cccc(NC(=O)Nc3cccc4ccccc34)c2O[C@@H]1CN(C)C(=O)Nc1ccc2c(c1)OCO2 | 30.5
CCOc1cc([N+](=O)[O-])ccc1NC(=O)CC1Sc2ccccc2NC1=O (stereo unspecified) | 110.0*
C[C@H]1CN([C@@H](C)CO)C(=O)Cc2cc(NC(=O)Cc3cn(C)c4ccccc34)ccc2O[C@H]1CN(C)Cc1ccc(-c2ccccc2)cc1 | 52.2
Cc1c(NC(=O)CSc2nc3cc(C(=O)N4CCCC4)ccc3s2)c(=O)n(-c2ccccc2)n1C | -15.8
Cc1cc(C(=O)Nc2cccc3c2O[C@@H](CN(C)Cc2ccccc2)[C@@H](C)CN([C@@H](C)CO)C3=O)n(C)n1 | 13.4
O=C(CS(=O)c1ccc(C(F)(F)F)cc1[N+](=O)[O-])Oc1ccc(Cl)cc1 (stereo unspecified) | 109.7*
CCOC(=O)COc1ccc2c(=O)c(-c3ccccc3OC)c(C(F)(F)F)oc2c1 | 93.2*
C[C@H]1CN([C@@H](C)CO)C(=O)Cc2cc(NC(=O)C3CCCCC3)ccc2O[C@@H]1CN(C)S(=O)(=O)c1ccc(Cl)cc1 | 34.6

Only part of the results is shown; the hit share may differ from the screen's.
